From PubChem BioAssay
Cruzain Triton: qHTS Assay for Promiscuous and Specific Inhibitors of Cruzain (with detergent); actives 0.43% (n = 200,000); purified cruzain, Z-FR-AMC fluorescence, 0.01% Triton; Potency, µM, for inactives: max response, negative = inhibition, actives largely listed as inhibitors; active means well fitted curve in the direction sought with a large enough effect; inconclusive means small, poorly fitted or top-dose-only effect, or another doubt; inactive means no such curve, though single readings can be large; an effect the other way counts as inactive or inconclusive;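 further: plate controls were neutral wells for no effect and buffer without enzyme for full effect; nearly all actives have a fitted effect of over 40% in size; top concentration of the series not given in the record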
Target sequence (P25779 123-467 limits assumed): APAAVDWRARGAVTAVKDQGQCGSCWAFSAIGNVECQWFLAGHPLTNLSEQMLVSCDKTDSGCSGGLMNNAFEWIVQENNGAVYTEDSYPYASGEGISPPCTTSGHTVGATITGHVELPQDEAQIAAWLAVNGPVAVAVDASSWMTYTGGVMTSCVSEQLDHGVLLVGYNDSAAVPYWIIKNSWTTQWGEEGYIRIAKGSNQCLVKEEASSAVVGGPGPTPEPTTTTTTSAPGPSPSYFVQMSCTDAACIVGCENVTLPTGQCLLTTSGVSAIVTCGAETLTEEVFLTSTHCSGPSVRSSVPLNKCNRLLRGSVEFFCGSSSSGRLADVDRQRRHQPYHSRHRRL
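15 min RT preincubation of 1.5 nM cruzain with compound, then 2 uM Z-FR-AMC added; kinetic AMC fluorescence, 60 s delta. Triton X-100 0.01%, pH 5.5.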
NS1 inh: qHTS Assay for Inhibitors of Influenza NS1 Protein Function; S. cerevisiae slowed by influenza A NS1, growth recovery by OD600; Potency, µM (highest dose often 46.1 µM), for the others: at the top dose activity, positive = more growth; actives 0.4% (n = 270,000); AID 2326, 2010; further: actives are rising curves; nearly all actives have a fitted effect of over 50% in size
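In this qHTS, NS1 from influenza A is expressed in budding yeast, where it slows growth. Cells are switched from glucose to 2% galactose medium (pH 6.0, -URA), treated with compound, and growth recovery is read at OD600.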
Marburg entry inh: qHTS for inhibitors of binding or entry into cells for Marburg Virus. Marburg virus pseudotyped entry inhibition, cell reporter; control for the full effect not named in the record; about a third of the inactives were read at about 46 µM. Potency, µM (titrated, usually from 37.8 µM), without a hit: at the highest dose activity change, negative = inhibition, actives largely listed as inhibitors. actives 1.8% (n = 300,000). AID 540276, 2011; active = well fitted inhibition curve with a large enough effect; inconclusive = small, poorly fitted or top-dose-only effect, or effect the other way; inactive = flat fitted curve, though single readings scatter; tested in HEK293 cells; about a fifth of its hits are not listed in these tables; further: on the % scale 0 is the no-effect control and ±100 the full control effect; luciferase read-out
RE007 growth inh: qHTS Assay for Inhibitors of the HIV-1 protein Vpr; S. pombe RE007 Vpr strain, BacTiter-Glo ATP luminescence, 24 h; control for the full effect not named in the record; actives 0.21% (n = 360,000); AID 651644, 2012; Potency, µM (top dose mostly 92.2 µM), without a hit: top-dose activity change, negative = less growth; active = well fitted falling curve with a large enough effect; inconclusive = small, poorly fitted or top-dose-only effect; inactive = no such curve, though single readings can be large or run the other way;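 further: on the % scale 0 is the no-effect control and ±100 the full control effect; nearly all actives have a fitted effect of over 50% in size; the assay follows cell death caused by Vpr and the record does not say whether a fall means rescue or toxicity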
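Fission yeast strain RE007, carrying one chromosomally integrated HIV-1 vpr copy, was seeded at OD 0.01 in PMG+AL medium with 23 nL pinned compound. After 24 h at 30 °C and 99% humidity, viability was read by BacTiter-Glo luminescence.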
LASV entry inh: qHTS for Inhibitors of binding or entry into cells for Lassa Virus | AID 540256, 2011 | actives 1.2% (n = 300,000) | Lassa virus pseudotype entry inhibition, cell reporter; control for the full effect not named in the record | Potency, µM (top dose mostly 37.9 µM), inactives show top-dose activity change, negative = inhibition, most hits filed as inhibitors; active means well fitted inhibition curve with a large enough effect; inconclusive means small, poorly fitted or top-dose-only effect, or effect the other way; inactive means flat fitted curve, though single readings scatter; tested in HEK293 cells; further: on the % scale 0 is the no-effect control and ±100 the full control effect; nearly all actives have a fitted effect of over 50% in size; luciferase read-out
SARS PLpro yeast: qHTS of Yeast-based Assay for SARS-CoV PLP; S. cerevisiae expressing SARS-CoV PLpro, growth rescue; control for the full effect not named in the record; Potency, µM (doses to about 32.9 µM), for inactives: top-dose activity, positive = growth rescue; actives 0.19% (n = 330,000); further: 0% is about no effect; nearly all actives have a fitted effect of over 55% in size; growth read by luminescence after 48 h
Cruzain inh noDet: qHTS Assay for Promiscuous and Specific Inhibitors of Cruzain (without detergent). Potency, µM, inactives show max response, negative = inhibition, most hits filed as inhibitors. AID 1476, 2009. actives 2.3% (n = 200,000). Cruzipain (Trypanosoma cruzi), P25779. purified cruzain, Z-FR-AMC fluorescence, no detergent; active means well fitted curve in the direction sought with a large enough effect; inconclusive means small, poorly fitted or top-dose-only effect, or another doubt; inactive means no such curve, though single readings can be large; an effect the other way counts as inactive or inconclusive;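 further: plate controls were enzyme without inhibitor for no effect and buffer without enzyme for full effect; nearly all actives have a fitted effect of over 40% in size; top concentration of the series not given in the record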
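Detergent-free condition (0.00005% Triton X-100) in acetate buffer pH 5.5 with DTT. 1.5 nM enzyme and compound were pre-mixed 15 min, then 2 uM Z-FR-AMC substrate added; reaction progress from fluorescence change between first and third reads (60 s).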
2A StopGo: High Throughput Screening for Foot and Mouth Disease Virus Antivirals | human cells with a luciferase reporter of 2A StopGo recoding; control for the full effect not named in the record | Potency, µM (series often up to 57.9 µM), without a hit: at the top dose signal change, negative = less light | actives 1.2% (n = 410,000); active = well fitted falling curve with a large enough effect; inconclusive = small, poorly fitted or top-dose-only effect; inactive = no such curve, though single readings can be large or run the other way; tested in HEK293T cells; further: on the % scale 0 is the no-effect control and ±100 the full control effect; nearly all actives have a fitted effect of over 45% in size; luciferase light after 4 h
Starred values were filed as active, the others as inactive; ? = inconclusive; / = no result given; & = joins results of further samples; [ ] = dose if it differs, or a comment. Unless noted, the call rests on the fitted dose curve; in most records, active means well fitted rising curve with a large enough effect; inconclusive means small, poorly fitted or top-dose-only effect; inactive means no such curve, though single readings can be large or run the other way. Potency means the concentration at half of the fitted maximal effect.

structure | LASV entry inh | Marburg entry inh | SARS PLpro yeast | Cruzain Triton | NS1 inh | Cruzain inh noDet | 2A StopGo | RE007 growth inh
Cc1ccc2c(c1)N(C(C)C(=O)NCc1ccc3c(c1)OCO3)C(=O)CO2 (stereo not given) | / | / | -1% | / | -31% | / | 10% | -5%
CC(C)(C)N1C(=O)NC(=O)/C(=C\c2ccc3c(c2)CCN3CCCCl)C1=O | ? | 1%[46.1 µM] | -2% | / | -1% | / | 1% | 8%
CC(=O)c1ccc(C(=O)N2CCCC(C(=O)c3ccc(Cl)cc3)C2)s1 (stereo not given) | / | / | -3% | / | 16% | / | 0% | -4%
Nc1cc(S(=O)(=O)N2CCCCC2)ccc1Oc1ccccc1 | ? | ? | -3% | / | / | / | 0% | 1%
CC[C@H]1OC(=O)[C@H](C)[C@@H](O[C@H]2C[C@@](C)(OC)[C@@H](O)[C@H](C)O2)[C@H](C)[C@@H](O[C@@H]2O[C@H](C)C[C@H](N(C)C)[C@H]2O)[C@](C)(O)C[C@@H](C)C(=O)[C@H](C)[C@@H](O)[C@]1(C)O | / | / | -4% | / | -30% | / | -11%&-9% | 4%
CNS(=O)(=O)c1cn(CC(=O)Nc2cccc(OC)c2)cc1S(=O)(=O)NC | 0%[46.1 µM] | / | / | 0.4% | / | -2% | 2% | /
CC(=O)c1ccc(NC(=O)N2CCN(c3cccc(Cl)c3)CC2)cc1 | 20% | ? | -22% | -4.3% | -93% | -12% | -20% | 15%
Cn1c(=O)cc(OCCCC(=O)NCc2cccnc2)c2ccccc21 | 1% | -19%[46.1 µM] | -5% | / | / | / | 6% | -12%
CC(=O)C1=C(O)C(=O)N(Cc2ccccc2)C1c1ccccc1F (stereo not given) | 7% | ? | 9% | -1.7% | -1% | -1% | 15% | -3%
COc1ccc(C(=O)C2CCCN(C(=O)CCc3scnc3C)C2)c(C)c1 (stereo not given) | -22%[46.1 µM] | 4%[46.1 µM] | -3% | / | -9% | / | -19% | 15%
CCOc1ccc2oc(C(=O)N(CC)CC(=O)Nc3c(F)cccc3F)c(C)c2c1 | -12% | -16% | -4% | / | / | / | -6% | -19%
CN1CCN(C2=C(Cl)C(=O)N(c3ccc(Cl)c(Cl)c3)C2=O)CC1 | 1% | ? | -20% | 2.8µM* | -84% | 2.5µM* | 6% | -25%
Cc1cc(C)n(CCCN2C(=O)c3cccc4cccc(c34)C2=O)n1 | ? | ? | 0% | / | -9% | / | 3% | 2%
CCCCSc1nc2sc3c(c2c(=O)n1-c1ccc(C)cc1)CCN(C)C3 | ? | ? | 0% | / | 5% | / | -10% | -16%
O=[N+]([O-])c1cc(-c2ccc(/C=N/n3cnnc3)o2)ccc1Cl | / | / | -1% | / | -23% | / | -8% | -3%
O=C(CSc1nnc(CNC(=O)c2c(F)cccc2F)o1)Nc1ccc2c(c1)OCO2 | 7% | 11% | / | / | 5% | / | -25% | -8%
CN1CCCN(C(=O)c2cc(=O)[nH]c3ccccc23)c2nc3ccccc3nc21 | 2% | -17% | 11% | 2.9% | -3% | -14% | 23% | -7%
COc1ccc(-c2nc3c(c(SCC(=O)Nc4ccccc4F)n2)Cc2cc(C)ccc2O3)cc1 | 6%[46.1 µM] | 1%[46.1 µM] | / | -1.9% | / | -7% | -15% | /
CCOC(=O)N1CCN(c2nc(C)cc(C(F)(F)F)n2)CC1 | 10% | 1% | -2% | -3.2% | -4% | 16% | -9% | -20%
O=C(Oc1ccc2ccc(OC(=O)N3CCOCC3)cc2c1)N1CCOCC1 | 20% | -16% | 4% | 2.7% | -1% | 7% | 3% | -2%
COc1ccc(CNC(=O)C/C(C)=N/NC(=O)COc2ccc(C)cc2Br)cc1 | / | ? | 0% | / | / | / | 31%[activator] | -5%
COCCNC(=O)c1nc2ccccc2s1 | -2%[46.1 µM] | ? | 0% | -0.5% | 0% | -12% | 43%[activator] | -4%
CC(=O)N1CCCc2cc(S(=O)(=O)CCC(=O)N3CCN(c4ccccc4)CC3)ccc21 | / | -4% | 4% | 4.6% | -5% | 7% | -1% | -4%
CCOC(=O)C1(O)CC(C)=NN1C(=O)c1cccc(Cl)c1 (stereo not given) | 2% | 0% | 23% | 1.4% | 4% | 0% | -8% | -14%
Cc1cccc(Nc2nc(-c3ccc(F)cc3)cs2)n1 | 13µM* | ? | 2% | / | -12% | / | 0% | 8%
CC(C)(C)OC(=O)NNC(=O)c1cccs1 | -3%[46.1 µM] | ? | 0% | / | / | / | 7% | 10%
CC1CCN(C(=O)CCNS(=O)(=O)c2ccc3c(c2)c(=O)n(C)c(=O)n3C)CC1 | / | / | 5% | / | 15% | / | -8% | 0%
O=C(Oc1ccc2c(=O)c(Oc3ccc4ccccc4c3)coc2c1)c1cccnc1 | 9% | 20% | 3% | -1.5% | 2% | 5% | 10% | 8%
Cn1ccnc1SCC(=O)Nc1cc(C(F)(F)F)ccc1N1CCOCC1 | -2% | 0% | -8% | 1.6% | -9% | -3% | 4% | -8%
Cc1ccc(S(=O)(=O)NC(=O)N2CCN(Cc3c(F)cccc3Cl)CC2)cc1 | ? | 7% | 0% | / | -5% | / | -12% | -3%
CCCS(=O)(=O)N1CCC(Cc2ccc(OC)cc2)(C(=O)OCC)CC1 | / | / | -1% | / | -6% | / | 11% | 10%
CCN(Cc1cc2ccccc2[nH]c1=O)S(=O)(=O)c1ccc(OC)cc1 | / | / | ? | / | 4% | / | -26% | -1%
CCOC(=O)c1c(-c2ccc(OC)cc2)nc2nonc2c1N | -10% | -11% | -1% | -6.6% | -6% | -17% | 0% | 5%
Cc1ccc(OCCn2c(C)c(/C=N/n3cnnc3)c3ccccc32)cc1 | -1% | -18% | 6% | 4.7% | 5% | -21% | -13% | -1%
Cc1ccccc1-n1c(O)c(C(c2ccncc2)c2c(O)n(-c3ccccc3C)c(=O)[nH]c2=O)c(=O)[nH]c1=O | 2% | ? | 2%&-4% | / | 2%&0% | / | 2%&-4% | -2%&6%
O=C1Nc2ccc(Cl)cc2/C1=C/C1CC=CCC1 (stereo not given) | ? | 7% | -119% | -8.8% | -18% | 11% | ? | ?
CN1C(=O)N(C)C2CC1N(C)C(=O)N2C | 32%[14.3 µM] | 3% | 4% | 3.9% | 6% | -7% | 20% | -11%
O=c1nc(/C=C/c2cccn2-c2ccc([N+](=O)[O-])cc2)cc(C(F)(F)F)[nH]1 | -3% | 13%[46.1 µM] | 1% | / | / | / | -20% | -3%
Cc1ccc(NC(=O)[C@@H]2CCC(=O)N2C2OC(=O)c3ccccc32)cc1Cl (stereo not given in full) | / | / | -5% | / | 8% | / | 19% | -3%
CC(Sc1nnc(-c2ccccc2F)n1C1CC1)C(=O)NC(N)=O (stereo not given) | / | ? | 0% | / | -6% | / | 7% | -22%
CCOC(=O)c1c(C)[nH]c(C(=O)COC(=O)c2cn(CC)c3nc(C)ccc3c2=O)c1C | / | 1% | 1% | 5.2% | -2% | 0% | / | /
COc1ccccc1CN1CC(C(=O)N2CCOCC2)CCC1=O (stereo not given) | / | / | 3% | / | 3% | / | 13% | -5%
C=CCN1C(=O)C2(OCCCO2)c2cccc(Cl)c21 | -30%[46.1 µM] | 11%[46.1 µM] | -11% | / | -2% | / | -8% | -8%
CCC(=O)N1CCN(c2nc(CC)nc3sc4c(c23)CCCC4)CC1 | ? | -30% | -9% | / | -4% | / | ? | 0%
CCNC(=O)N1CCC(n2nccc2NC(=O)CCOc2ccccc2)CC1 | / | / | -15% | / | -2% | / | 7% | 3%
COc1ccc(OC)c(NC(=O)c2c(NCc3ccc(C)o3)sc3c2CCC(C)C3)c1 (stereo not given) | -12%[46.1 µM] | / | / | -8.9% | / | -14% | 0% | /
O=C(O)c1ccc(-c2nnc(-c3ccccc3)o2)cc1 | / | / | -2% | / | 4% | / | -47% | -18%
CN1/C(=C/C(=O)CSc2ccccc2C(=O)O)C(C)(C)c2ccccc21 | / | / | 8% | / | 10% | / | 0% | 22%
COc1ccc(S(=O)(=O)N2CC(C(=O)O)Oc3ccc(Cl)cc32)cc1 (stereo not given) | -2%[46.1 µM] | -2%[46.1 µM] | 3% | / | 4% | / | 6% | 9%
c1ccc(C2=NNC(=NCc3ccc4c(c3)OCO4)SC2)cc1 | -3% | 5% | 28% | -9.3% | 10% | -6% | 15% | 6%
Cc1cc(C)n(CCC(=O)N/N=C/c2ccc(O)cc2)n1 | -11% | 22% | -6% | -3.4% | -2% | -4% | -7% | ?
CC(C)C(c1nnnn1Cc1ccccc1)N(CCCO)Cc1cc2cc3c(cc2[nH]c1=O)OCO3 (stereo not given) | 6% | -29%&-29% | -2% | -7.4% | -11% | 24% | -3% | 15%
Cc1ccc(CNc2cc(C(=O)O)ccc2C)s1 | 8%[46.1 µM] | 1%[46.1 µM] | 0% | / | -48% | / | -9% | 5%
COc1cccc(N2CC(NC(=O)COc3ccc4ccccc4c3)CC2=O)c1 (stereo not given) | -10%[46.1 µM] | / | / | -5.1% | / | 14% | -19% | /
Cc1ccc(S(=O)(=O)c2nc(S(C)(=O)=O)sc2N2CCOCC2)cc1 | / | / | -2% | / | -3% | / | 34%[activator] | 11%
Cc1ccc(C(=O)Nc2cccc(C(O)c3ccccc3)c2)cc1 (stereo not given) | -11% | -14% | / | / | / | / | 34%[activator] | 27%
COc1ccccc1CC(=O)NNS(=O)(=O)c1ccc([N+](=O)[O-])cc1 | 12%[46.1 µM] | 29%[46.1 µM] | 0% | / | 4% | / | 5% | 1%
CCN1CCN(CCCNC(=O)CS(=O)(=O)Cc2nc(-c3ccccc3C)oc2C)CC1 | -1%[46.1 µM] | 5%&5%[46.1 µM] | 2% | 0.8% | -4% | 3% | -12%&-16% | -11%
COc1ccc(OC)c(C(c2nnnn2C(C)(C)C)N2CCc3ccccc3C2)c1 (stereo not given) | ? | 13µM* | -17% | -7.2% | -58% | -2% | -3% | 16%

This is a random part of the collection (roughly 4.7% active in at least one column).
